Vaccinia Venus: vaccinia inhibition (Venus reporter) | AID 720580 | Potency, µM (doses to about 36.5 µM), without a hit: top-dose activity change, negative = inhibition, hits mostly inhibitors | Vaccinia virus Venus reporter expression, fluorescence | actives 0.46% (n = 330,000); active means well fitted inhibition curve with a large enough effect; inconclusive means small, poorly fitted or top-dose-only effect; inactive means no such curve, though single readings can be large or run the other way; tested in A549 cells; note: nearly all actives have a fitted effect of over 30% in size; inactives centre near -10
Vaccinia mCherry: inhibitors of vaccinia virus infection (mCherry reporter signal); Vaccinia virus mCherry reporter infection, fluorescence; about a quarter of the inactives have no number; Potency, µM (doses to about 36.5 µM), inactives show top-dose activity change, negative = inhibition, actives largely listed as inhibitors; actives 0.63% (n = 310,000); active = well fitted inhibition curve with a large enough effect; inconclusive = small, poorly fitted or top-dose-only effect; inactive = no such curve, though single readings can be large or run the other way; tested in A549 cells; note: nearly all actives have a fitted effect of over 35% in size; inactives centre near -10
* = called active by the depositor; i = inactive; ? = inconclusive; . = not tested or not shown; [ ] = dose if it differs, or a comment. % is set by controls: 0 for no effect and ±100 for the full control effect; potency is the fitted concentration of half-maximal effect.

Start of the listing, in advance:
Structure | Vaccinia mCherry | Vaccinia Venus
Cc1ccc(S(=O)(=O)N(CC(O)Cn2c3ccccc3c3ccccc32)c2cccc(C(N)=O)c2)cc1 (centres undefined) | -12.3% | -6.7%
CC(=O)Nc1ccc2[nH]ccc2c1 | -11.1% | -10.8%

The whole of this part (from the top)
Structure | Vaccinia mCherry | Vaccinia Venus
Cc1ccc(S(=O)(=O)N(CC(O)Cn2c3ccccc3c3ccccc32)c2cccc(C(N)=O)c2)cc1 (centres undefined) | -12.3% | -6.7%
CC(=O)Nc1ccc2[nH]ccc2c1 | -11.1% | -10.8%
COc1ccc(-c2oc(=O)c3cc(OC)c(OC)cc3c2C#CCCO)cc1 | -23.0% | -16.5%
CCOc1ccc(CN2CCN(C(=O)c3cccc(F)c3)CC2)cc1 | -24.5% | -22.7%
Fc1ccc(NC(=S)Nc2cc(Cl)ccc2Cl)cc1 | -3.5% | -6.6%
CCCCCCCC(=O)C(C)C(=O)N(C)[C@H](Cc1ccc(OC)cc1)C(=O)N(C)[C@H](C(N)=O)C(C)C (some centres undefined) | -0.5% | -5.9%
COc1ccc(C(=O)C2CCCN(Cc3c(F)ccc(F)c3F)C2)c(OC)c1 (centres undefined) | -12.2% | -9.6%
COc1ccc(NC(=S)Nc2ccc(F)cc2)c(OC)c1 | -22.9% | -18.3%
Cc1ccccc1S(=O)(=O)Cc1ccc(C(=O)NCc2ccccc2)o1 | -12.7% | -15.4%
Cc1ccc(OC(=O)c2cc(=O)c3ccccc3o2)cc1 | -15.1% | -18.8%
Cc1[nH]c(C)c(S(=O)(=O)Nc2ccccc2)c1C(=O)N1CCCC1 | -14.6% | -0.6%
O=c1[nH]c(C2CCN(S(=O)(=O)c3ccc(S(=O)(=O)NC4CC4)cc3)CC2)nc2c1nnn2Cc1cccc(F)c1 | -17.3% | 11.5%
CCCCCn1c(SCc2cccc(C)c2)nc2c1c(=O)[nH]c(=O)n2C | 10.1% | -10.5%
CCS(=O)(=O)N1CCN(c2ccc(Cl)cc2[N+](=O)[O-])CC1 | -15.8% | -11.9%
COc1ccc(CCNC(=O)/C=C/C(=O)O)cc1 | 7.0% | -5.3%
COc1ccccc1NC(=S)NCCSc1ccc(C)cc1 | -9.1% | -2.4%
Cc1c(C(=O)N2CCOCC2)sc(NC(=O)c2ccc([N+](=O)[O-])cc2)c1C#N | 2.3% | -7.8%
O=C(NCc1c(F)cccc1F)c1cc(COc2c(F)cccc2F)on1 | -1.2% | -25.2%
CCc1nc(SCC(=O)N2CCN(C(=O)c3ccco3)CC2)c2c3c(sc2n1)CCCC3 | ? | -24.8%
COC(=O)C1(Cc2cc(-c3cccc(Br)c3)no2)CCN(C(=O)OC(C)(C)C)CC1 | -7.8% | -8.5%
Cc1ccc2c(c1)N(Cc1ccccc1)C(=O)C(C)O2 (centres undefined) | 1.1% | 14.4%
O=C(O)CC1Sc2nnc(COc3ccc(Cl)cc3)n2N=C1c1ccccc1 (centres undefined) | -13.4% | 1.5%
CC(C)(C)c1cc(OC(=O)C2CCCC2)ccc1O | -22.8% | ?
CCOC(=O)c1cc(NC(=O)CSc2nnc(CN3CCOCC3)n2C)ccc1Cl | -9.0% | -5.6%
CCC(=O)c1c(NC(CC)CO)cc(C)oc1=O (centres undefined) | 4.0% | -6.8%
Cc1ccc(C(=O)c2ccc([N+](=O)[O-])cc2)cc1 | -9.3% | -15.9%
Cn1c2c(c(=O)n(C)c1=O)C(C(F)(F)F)(C(F)(F)F)N=C(C1CCCCC1)N2 | ? | -21.9%
CN(C)CCCNc1nc(N)c([N+](=O)[O-])c(NCc2ccccc2)n1 | ? | ?
O=C(CSCc1ccc(Cl)cc1)N/N=C/c1ccc(OCC(=O)Nc2ccccc2)cc1 | . | ?
Cc1ccc(OC[C@H](O)[C@H](C)NC(C)C)c2c1CCC2 | -15.7% | -26.6%
Cc1ccc(CNC(=O)COC(=O)c2ccc(S(=O)(=O)N3CCCCCC3)cc2)cc1 | -8.1% | -11.5%
CCc1nnc(SCc2ccc(OC(C)C)cc2)n1N | . | -3.2%
Cc1c(Cl)cccc1NC(=O)c1noc2c1CCCC2 | -8.7% | -13.3%
COc1ccccc1C(=O)Nc1ccnn1C1CCN(C(=O)C2CCOC2)CC1 (centres undefined) | -15.9%[7.34 µM] | -1.0%[7.34 µM]
COc1cccc(CSc2nc3cc4c(cc3cc2C)OCCO4)c1 | ? | -26.6%
Cc1ccnn1CCC(=O)N1CCCC(CCC(=O)N2CCN(c3ccccn3)CC2)C1 (centres undefined) | -12.3% | -8.8%
Cc1cccc(C(=O)NC(=S)Nc2ccc(S(=O)(=O)N(C)c3ccccc3)cc2)c1 | . | -4.6%
COc1ccc(CN(CCC(c2ccccc2)c2ccco2)C(=O)c2ccco2)cc1 (centres undefined) | i | -6.7%
CCOC(=O)N1CCN(C(=O)CCn2c(=S)[nH]c3ccsc3c2=O)CC1 | -7.2% | 2.4%
Cc1ccc(C)c(OCc2ccc(C(=O)N3N=C(C(F)F)CC3(O)C(F)F)o2)c1 (centres undefined) | ? | ?
COc1ccc(NC(=O)N(C)C[C@@H]2OCc3cn(nn3)CCCC(=O)N([C@@H](C)CO)C[C@H]2C)cc1 | ? | -10.2%
CC(C(=O)N1CCCC1)N1CCN(c2ccccc2O)CC1 (centres undefined) | i | 0.2%
CC(C(=O)N1CCc2ccccc21)N(C)CC(=O)Nc1cccc(F)c1 (centres undefined) | -8.9% | -15.6%
CN1C[C@@H]2[C@@H]3C(=O)N(Cc4ccccc4)C(=O)[C@@H]3[C@](C)(C1=O)N2C(=O)c1ccccc1 | i | -6.8%
CCOc1ccc(NC(=O)CN(C)CC(=O)Nc2ccc(F)c(F)c2F)cc1OCC | -9.2% | -9.7%
COc1ccc(CNC(=O)c2cc3c(=O)[nH]c4ccccc4c3n2C)c(OC)c1 | 6.8% | -6.1%
CCOC(=O)C(=O)Cc1cccnn1 | -13.3% | -6.6%
CC(C)C(=O)N1CCN(c2ccccc2NC(=S)NC(=O)Cc2ccccc2)CC1 | -11.3% | -12.3%
CC(=O)[C@]1(O)CCC2C3CCC4=CC(=O)CC[C@@]4(C)C3CC[C@]21C (some centres undefined) | 14.5% | 14.9%
O=C(c1ccoc1)N1CCCC(Nc2ccc(F)c(F)c2)C1 (centres undefined) | -18.7% | 2.8%
Cc1cccc(CS(=O)(=O)c2ncc(Cl)c(C(=O)NCc3ccccc3)n2)c1 | -18.2%[7.34 µM] | -17.3%[7.34 µM]
O=c1c2ccccc2nnn1COc1ccc(Cl)cc1Br | i | -10.6%
O=S(=O)(Nc1nnc(C2CCCCC2)s1)c1ccc(F)cc1 | -14.8% | 10.5%
CC(C)=CCN1CCN(Cc2ccoc2)CC1CCO (centres undefined) | -1.0% | -11.9%
O=C(NCCCn1ccnc1)c1ccc(-c2cccc(Cl)c2Cl)o1 | -26.9% | ?
COc1ccc(C(=O)NC2=NCCS2)cc1S(=O)(=O)N1CCCCC1C (centres undefined) | i | -9.8%

Additional structures:
Structure | Vaccinia mCherry | Vaccinia Venus
Cc1ccc(N2C(=O)N3[C@H](c4ccc(Br)cc4)[C@@H]4C(=O)N(C(C)(C)C)C(=O)[C@@H]4[C@]3(C)C2=O)cc1 | i | -7.9%
Cc1ccc(NC(=O)CSc2nc3ccccc3c(=O)[nH]2)cc1[N+](=O)[O-] | -0.4% | -11.4%
CCC(C)(C)NC(=O)C(c1ccc(OC)cc1)N(C(=O)CCC(=O)Nc1cc(C)on1)C(C)(C)C (centres undefined) | -6.3% | -5.6%
CN1C(=S)SC2CS(=O)(=O)CC21 (centres undefined) | i | -4.6%
O=C1CN(C(=O)CNC(=O)c2ccccc2Cl)c2ccccc2N1 | -0.8% | -2.6%
COc1cc(C2C=C(c3cccs3)Nc3ncnn32)cc(OC)c1OC (centres undefined) | -19.0% | -14.8%
CN(C)c1ccc(N=Nc2ccc(S(N)(=O)=O)cc2)cc1 | -7.0% | -1.9%
CCOC(=O)C1=C(CNCc2ccccc2Cl)NC(=O)NC1c1cccc([N+](=O)[O-])c1 (centres undefined) | ? | ?
COc1ccc(C[C@@H]2CN3C(=NC[C@@H]3C)N2C[C@H](C)NC(=O)CCC2CCCCC2)cc1 | i | -4.5%
Cn1c(=O)c(/C(N)=N/OC(=O)c2ccccc2)cn(-c2ccccc2)c1=O | -3.5% | -13.6%
O=C(Cn1nnc(-c2ccccc2)n1)NC1CCS(=O)(=O)C1 (centres undefined) | -0.7% | -9.8%
COc1ccccc1Cc1c(C2CCCCC2)nc2c3ccccc3ccn12 | 3.1% | -7.1%
Cc1cc(NC(=O)CSc2ccc3nnc(-c4cccc(F)c4)n3n2)no1 | -13.4% | -13.1%
CN1CCC(=O)N(CCSc2ccc(Br)cc2)CC1 | i | -15.7%
O=C(Nc1cccc(NS(=O)(=O)c2ccc(S(=O)(=O)NC3CC3)cc2)c1)c1ccccn1 | i | -11.2%
COCCNCCCOc1ccc(Cl)cc1Br | -13.6% | -8.5%
CCn1nnnc1SCC(=O)c1ccc(NC(C)=O)cc1 | -9.8% | 4.4%
Cc1ccc(CNCc2cc(Cl)ccc2O)cc1 | -18.3% | -17.5%
Cc1ccc2c(c1)-c1nc3ccccc3cc1C2=NC1CCCCC1 | ? | ?
COc1ccc(CCNC(=O)CCn2cccc2)cc1OC | i[1.46 µM] | -9.5%
COc1ccc(-n2nc(C(=O)NCC(=O)NCCCN3CCN(C)CC3)c3ccccc3c2=O)cc1OC | -6.8% | 3.7%
CC(NC(=O)CSC(=S)N(C)C)C12CC3CC(CC(C3)C1)C2 (centres undefined) | -20.7% | -0.8%
Cc1cccc(OCC(=O)Nc2ccc(O)c(-c3nc4ccccc4o3)c2)c1 | 0.0% | -13.1%
COc1ccc(S(=O)(=O)Nc2ccccc2C(=O)NCc2ccco2)cc1 | -11.2% | -3.0%
O=c1cc(Nc2ccc3c(c2)OCO3)[nH]c(=O)n1-c1ccc(Br)cc1 | ? | ?
O=C(Nc1ccc(Br)cc1)c1cc(-c2ccc3c(c2)OCO3)on1 | -8.7% | -8.4%
OCC(C#CCN1CCCCC1)NCc1ccccc1 (centres undefined) | -10.6% | -4.5%
C[C@@H]1CN([C@@H](C)CO)S(=O)(=O)c2ccc(Br)cc2O[C@H]1CN(C)C(=O)CN(C)C | -5.5% | 2.7%
CC(=O)OC(C(=O)NC1CCCCC1)c1ccccc1Cl (centres undefined) | i | -8.8%
S=C(NCC1CCCO1)c1ccc(Br)cc1 (centres undefined) | -4.6% | -1.1%
CC(=O)c1ccc(N2CCN(C(=O)C(=O)c3cn(CC(=O)N4CCOCC4)c4ccccc34)CC2)cc1 | -4.0% | -11.2%
Cc1[nH]c2ccc(F)cc2c(=O)c1SC(F)(F)C(F)C(F)(F)F (centres undefined) | ? | ?
CCC(C)c1ccc(NC(=O)C2CC3CCC2C3)cc1 (centres undefined) | 0.3% | 5.5%
CCc1ccc(NC(=O)Nc2c(C)n(C)n(-c3ccccc3)c2=O)cc1 | i | -3.0%
Cc1c(C)c2cc3c(c(C)c2oc1=O)OCN(CCc1ccc(F)cc1)C3 | -7.5% | -2.3%
CC(C)OC(=O)C1C2C=CC3(CN(CC4CCCO4)C(=O)C13)O2 (centres undefined) | -10.5% | -5.4%
Cc1cccc(-c2nnc(SCC(=O)N3CCCCC3)o2)c1 | -11.9% | -5.4%
CC(C)C[C@H](NC(=O)c1nc[nH]c1C(=O)N1CCN(c2ccccc2)CC1)C(=O)OC(C)(C)C | -9.3% | -29.1%
CC(C)c1ccc(Nc2cnn(C34CC5CC(CC(CC(=O)O)(C5)C3)C4)c(=O)c2Cl)cc1 | i | -10.7%
Nc1[nH]c(=S)[nH]c(=O)c1N=O | 12.7% | 6.7%
Cc1ccc(C(=O)Nc2cc(C)c(OCC(=O)N3CCOCC3)c(C)c2)cc1 | -17.9% | -12.4%
Cc1cc(=O)oc2cc(OCC(=O)OCC(=O)N(C)C3CCS(=O)(=O)C3)ccc12 (centres undefined) | i | 7.4%
COc1ccc(C(CC(=O)N2CCCCC2)C(C)C)cc1 (centres undefined) | -2.4% | -8.8%
COc1ccc(NC(=O)N2CCC(n3nnc4cc(C)ccc43)CC2)cc1 | -2.6% | -13.0%
CCCCN(Cc1ccccc1)S(=O)(=O)c1cc(Br)cc2c1N(C(=O)C1CC1)CC2 | -12.8% | -8.5%
CN(C)C(=O)NC(Nc1ccc(Cl)cc1Cl)C(Cl)(Cl)Cl (centres undefined) | -4.8% | -10.6%
CC1Cc2cc(-c3csc(NC(=O)CCl)n3)ccc2N1C(=O)C1CC1 (centres undefined) | -14.3% | -5.9%
COC(=O)c1ccc(COC(=O)C2CCN(S(=O)(=O)c3ccccc3C(=O)OC)CC2)cc1 | -15.2% | -10.4%
CN(C(=O)COC(=O)c1c2c(nc3ccccc13)CCCC2)c1c(N)n(Cc2ccccc2)c(=O)[nH]c1=O | 0.0% | -5.0%
Clc1ccccc1CN(Cc1ccccc1)c1ncnc2nc[nH]c12 | ? | -25.1%
Nc1nc(SCc2ccc(Cl)cc2)ns1 | . | ?

Source: PubChem (National Center for Advancing Translational Sciences (NCATS))

Rows were taken by chance; overall some 0.88% were active at least once.
